Ba CapD inh: Bacillus anthracis CapD inhibitors, primary screen, biochemical, fluorescence intensity; CapD gamma-glutamyltranspeptidase (Bacillus anthracis Ames Ancestor); purified CapD enzyme, fluorescence intensity read-out; active compounds read low; some hits fall short of the stated cut; z-score (test concentration not listed); 140,000 compounds, 0.23% hits;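 active = z-score under -4 in either of two replicates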;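 also: stock transfer was 100 nL into about 40 µL; score is relative to mean and spread of the plate; one replicate is shown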
AID504770: growth inhibition of E. coli YBA685, primary screen, V. cholerae RctB inhibitors; E. coli YBA685 rctB-dependent plasmid, OD600 growth, 3 h; active compounds read low; 130,000 compounds, 0.27% hits; z-score (no concentration beside the values);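 active = z-score under -2 on both plates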;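 also: wells of about 30 µL received 100 nL stock; score is relative to mean and SD of the test wells; the first replicate is given; strong numbers were not always called active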
* marks the source's active call; other numbers are inactive results; x = not tested or not shown. Only part of the results is shown (hit frequency here may not be typical).

cpd	molecule	Ba CapD inh	AID504770
1	Cc1nccc(-c2cccc(NC(=O)c3nc4ccccc4s3)c2)n1	0.38	-0.4
2	Cc1ccccc1-c1ccc2cccc(C)c2n1	0.22	0.3
3	Cc1ccnc(NS(=O)(=O)c2ccc(NC(=O)c3cc4ccccc4oc3=O)cc2)n1	-0.395	x
4	CC(C)(C)C(=O)CSc1nc2ccccc2n1S(=O)(=O)c1ccccc1	0.155	0.6
5	Cc1ccc2cc(CN(C)C3CCS(=O)(=O)C3)c(Cl)nc2c1C (centres undefined)	x	1.55
6	CN(C)c1cc(C(=O)N(C)c2ccc(C(C)(C)C)cc2)nc(N(C)C)n1	-0.575	x
7	Nc1ccc(C(=O)N(CCO)CCO)cc1	x	-0.65
8	CCn1c2ccccc2c2cc(CN3CCN(C)CC3)ccc21	5.04	0.1
9	NC1=Nc2ccccc2CC1	x	-0.35
10	CN(C)c1ccc(C2/C(=C(/O)c3ccccc3)C(=O)C(=O)N2c2ccccc2)cc1 (centres undefined)	-0.245	x
11	Cn1nc(OCC(O)CS(=O)(=O)c2ccc(Cl)cc2)cc1C(F)(F)F (centres undefined)	0.36	x
12	CCC(NS(=O)(=O)c1cccc2nsnc12)C12CC3CC(CC(C3)C1)C2 (centres undefined)	-0.675	x
13	CCN(CC)c1ccc2cc(-c3nc(-c4ccc(Br)cc4)cs3)c(=Nc3ccc(OC)cc3)oc2c1	0.315	x
14	COc1ccccc1NC(=O)N(c1ccc2c(c1)CCN2S(C)(=O)=O)C1CCN(Cc2ccccc2)CC1	-0.525	x
15	NC(=O)SCc1nc2c3ccccc3ncn2n1	x	-0.3
16	O=C(Nc1cccc(I)c1)C(=O)c1c(O)[nH]c2ccccc12	-1.29	0.2
17	NCCS(=O)(=O)c1ccc(C(F)(F)F)cn1	-0.38	0.05
18	Cc1c(CC(=O)O)c2c(n1-c1ccc(Br)cc1)CC(C)(C)CC2=O	0.875	x
19	CCOC(=O)C1CCN(Cc2cn[nH]c2-c2ccc(C)cc2)CC1	x	0.7
20	N#C/C(=C\c1ccc2c(c1)OCO2)c1nc2ccccc2[nH]1	-0.59	x
21	CCn1c2ccccc2c2cc(/C=N/O)ccc21	63.1	-0.5
22	CC(Sc1nnnn1C)C(=O)NC(C)c1ccc(Cl)cc1Cl (centres undefined)	x	0.85
23	COc1ccc(CCN=C(N)Nc2nc(C)cc(C)n2)cc1OC	1.06	-1
24	CCc1ccccc1OCC(=O)OCC(=O)Nc1cc(C)on1	x	0.1
25	Cc1n[nH]c(=O)c2c(NC(=O)COC(=O)Cc3c(F)cccc3Cl)oc(C)c12	x	-0.55
26	CC1Cc2ccccc2N1C(=O)CCS(=O)(=O)c1ccc2c(c1)n(C)c(=O)c(=O)n2C (centres undefined)	-0.89	0.7
27	CCC(CO)NS(=O)(=O)c1cc(-c2nnc(OC)c3ccccc23)ccc1C (centres undefined)	-0.095	-0.75
28	Cc1[nH]c2ccccc2c1C=Nc1ccccc1Br	-0.87	-0.85
29	Cc1ccc(NCC(=O)N2CC3(C)CC2CC(C)(C)C3)cc1F (centres undefined)	x	-0.1
30	COc1cc(C)c(S(N)(=O)=O)cc1C(C)C	0.31	-0.7
31	CSc1nc2ccccc2cc1/C=C(\C#N)c1ccc(Cl)c(Cl)c1	-0.585	x
32	COc1ccc(N(CC(=O)Nc2c(C)n(C)n(-c3ccccc3)c2=O)S(=O)(=O)c2ccccc2)cc1	0.415	x
33	COc1ccc(Oc2c(C(F)(F)F)oc3c(CN4CCCCC4C)c(O)ccc3c2=O)cc1 (centres undefined)	-0.055	x
34	COc1ccc(C(=O)c2c(N)sc3c2CCN(C)C3)cc1	1.28	-0.85
35	c1ccc(Cn2nnc3cnccc32)cc1	1.34	-0.05
36	Cc1noc(C)c1CSc1ccccc1C(=O)NC(C)c1ccc2c(c1)OCCO2 (centres undefined)	x	-0.2
37	CCOC(=O)C1=C(C)N=c2s/c(=C/c3cc(C)n(C)c3C)c(=O)n2C1c1cc(OC)ccc1OC (centres undefined)	-0.065	x
38	CC(=O)N1CCN(c2ccc(NC(=O)c3cc(Br)ccc3Cl)cc2)CC1	-0.715	-0.35
39	Cc1ccc(OCc2nc(SCC(=O)c3ccc(S(=O)(=O)N4CCCC4)cc3)n[nH]2)cc1	x	-0.9
40	CN(C(=O)Cc1noc2ccccc12)c1ccccc1	-1.5	0.8
41	Cc1cc(C)c(C2=NON3N(C(=O)c4ccc(F)cc4)c4ccccc4N23)c(C)c1	0.065	x
42	Cc1cc(S(=O)(=O)Nc2ccnn2C)c(Cl)cc1Cl	0.045	x
43	CCC1(CC)C(=O)N(CC(=O)OC)C(=O)N(C)C1=S	-0.935	-0.4
44	Cc1ccc(N(CC(=O)N2CCN(c3ccccc3)CC2)S(=O)(=O)c2c(C)n[nH]c2C)cc1	-0.465	-1
45	COc1cccc(OC(C)C(=O)O)c1 (centres undefined)	x	-0.65
46	Cc1[nH]c2ccccc2c1SCCNC(=O)C(C)(C)C	-0.21	2
47	CC(C)=CCC1=C(O)c2ccccc2C(=O)C1=O	-0.23	0.45
48	O=C(O)C(Cc1ccccc1)n1cnnn1 (centres undefined)	0.36	-0.85
49	O=C(CC(NCc1cccnc1)C(=O)O)NN(c1ccccc1)c1ccccc1 (centres undefined)	0.525	-1.05
50	COc1ccccc1C(=O)Nc1ccncc1	x	-1.5

Going on with the list:
cpd	molecule	Ba CapD inh	AID504770
51	CCCc1nc2ccccc2c(C(=O)OCc2nnc(-c3cc(OC)c(OC)c(OC)c3)o2)c1CC	x	0.35
52	CC1(C)CC(=O)C2(C(=O)C1)C(c1ccc(Cl)cc1Cl)C2(C#N)C#N (centres undefined)	-0.34	x
53	CS(=O)(=O)n1c(=O)oc2ccccc21	-0.015	-0.95
54	CCC(C)NC(=O)c1cc(S(=O)(=O)N2CCc3ccccc3C2)ccc1Cl (centres undefined)	0.15	-0.5
55	CN(C)C(=O)/C=C/c1cn(-c2ccccc2)nc1-c1ccccc1	2.76	0.2
56	COc1cccc(NC(=O)c2ccnc(N3CCC(C(=O)NC4CCCC4)CC3)c2)c1	0.185	-1.75
57	Cc1ccccc1N1CC(O)(c2ccccc2)[N+]2=C1SCCC2 (centres undefined)	0.765	x
58	COc1ccc(C(=O)NC(N2CCCCC2c2cccnc2)(C(F)(F)F)C(F)(F)F)cc1 (centres undefined)	0.265	-0.35
59	CSc1nn(-c2ccccc2)cc1C(=O)N1CCOCC1	0.62	-0.25
60	CC1CC(C)CN(S(=O)(=O)c2ccc(C(=O)NN3CCOCC3)cc2)C1 (centres undefined)	x	-0.6
61	CCOC(=O)c1cc2ccccc2oc1=N	15.7	1.8
62	O=c1[nH]c(CCl)nc2sc3c(c12)CCC3	1.36	-0.4
63	O=C1/C(=C/c2ccco2)CN(Cc2ccccc2)C/C1=C\c1ccco1	-0.105	-0.95
64	O=C1Nc2ccccc2SC(c2ccccc2)C1O (centres undefined)	0.23	-1.45
65	c1cncc(CSc2nnc3ccc(-c4ccncc4)nn23)c1	x	0
66	COc1ccccc1CNC(=O)CSc1nc2c(cnn2-c2cccc(C)c2)c(=O)[nH]1	x	-0.3
67	c1ccc(-c2oc3ncn4nc(-c5ccncc5)nc4c3c2-c2ccccc2)cc1	0.84	x
68	Cc1ccc(N2C(=S)N(C)C3CS(=O)(=O)CC32)cc1 (centres undefined)	0.195	0.65
69	Cc1nnc(Nc2ccc3c(c2)OCCO3)[nH]c1=O	-1.41	0.2
70	CCn1nc(C(=O)NCCC(C)C)c2ccccc2c1=O	x	0.65

An excerpt of these results, field by field.
15: NC(=O)SCc1nc2c3ccccc3ncn2n1
- Ba CapD inh = x
- AID504770 = -0.3
69: Cc1nnc(Nc2ccc3c(c2)OCCO3)[nH]c1=O
- Ba CapD inh = -1.41
- AID504770 = 0.2
3: Cc1ccnc(NS(=O)(=O)c2ccc(NC(=O)c3cc4ccccc4oc3=O)cc2)n1
- Ba CapD inh = -0.395
- AID504770 = x

Continuation.
Fields: Ba CapD inh	AID504770
#71 CCCNC(=O)Cn1c(=O)cnc2ccccc21
 : x	-0.45
#72 O=C(C1c2ccccc2Oc2ccccc21)N1CCN=C1SCc1ccccc1F
 : 0.175	0.6
#73 O=C(Nc1ccccc1)c1ccccc1OCC(O)CN1C(=O)c2ccccc2S1(=O)=O (centres undefined)
 : -0.025	x
#74 COc1cc(OC)cc(C2NCCc3c2[nH]c2ccccc32)c1 (centres undefined)
 : 0.49	-0.45
#75 C=CCN(C(=O)/C=C/c1ccco1)c1nc(-c2ccccc2)cs1
 : x	1
#76 O=C(Nc1ccccc1Cl)N1CCc2ccccc2C1
 : x	-0.5
#77 O=C1CCCN2N=C(SCC(=O)OCc3ccccc3)SC2=N1
 : -0.715	-0.3
#78 FC(F)Oc1ccc(N=C2SCC3CCCCN23)cc1 (centres undefined)
 : x	-0.2
#79 Cn1nccc1NC(=O)Nc1cccc(Br)c1
 : 0.085	x
#80 Cc1cccc(OCC(=O)NCc2ccccc2)c1
 : 0.145	0.1
#81 O=c1c2cnn(-c3ccccc3)c2ncn1Cc1ccccc1
 : -0.76	-0.55
#82 CCOc1ccc(N2C(=O)/C(=C\c3cc(Br)c(O)c(OC)c3)S(=O)(=O)C2c2cccc([N+](=O)[O-])c2)cc1 (centres undefined)
 : -1.4	x
#83 O=C(NCc1cccnc1)c1cccn1-c1ncc(C(F)(F)F)cc1Cl
 : 0.03	x
#84 COc1cc2nc(NC(=O)c3ccccc3)sc(=O)c2cc1OC
 : -1.54	0.2
#85 Cc1ccc(Oc2ccc(C)c(C)c2)cc1C
 : 6.95	0.25
#86 Cc1ccc(-c2nnc(N3CCOCC3)c3ccccc23)cc1S(=O)(=O)NCC1CCCO1 (centres undefined)
 : x	0
#87 O=C(CCCO)N/N=C/c1ccnc2ccccc12
 : 3.35	x
#88 O=c1[nH]c(-c2ccccc2O)nc2sc3c(c12)CCCC3
 : 1.77	-0.2
#89 O=C(O)C1C2C=CC(C2)C1C(=O)NCCc1ccncc1 (centres undefined)
 : -0.075	-0.45
#90 Cc1ccc(-c2nn3c(CC#N)nnc3c3ccccc23)cc1
 : 0.23	-0.9
#91 Cc1ccc(OCC(=O)n2cnnc2N)c(C)c1
 : -0.44	2.55
#92 CC(C)Nc1nc(-c2cccnc2)nc(-c2ccc(Cl)cc2)c1C#N
 : 0.925	x
#93 O=c1[nH]c2c(c(=O)[nH]1)CN(Cc1ccc(F)cc1)CC2
 : 0.335	1.6
#94 COc1ccc2c(c1)c(C(=O)O)c(C)n2C(C)C
 : x	-0.45
#95 COC(=O)CCC(=O)c1ccn(S(=O)(=O)c2ccccc2)c1
 : -0.2	0.45
#96 O=C1C(C=NC(CO)(CO)CO)=C(O)c2ccccc21
 : -3.23	-0.2
#97 CCOC(=O)C1=C(N)SC(c2ccccc2)=C(C#N)C1c1ccco1 (centres undefined)
 : 4.38	-0.3
#98 O=C(COc1ccc(Cl)cc1)Nc1noc2ccccc12
 : -1.16	0.55
#99 CC(=O)NC(N1CCCCC1c1cccnc1)(C(F)(F)F)C(F)(F)F (centres undefined)
 : -0.44	2.1
#100 CC1Sc2ccc(C(=O)NCc3ccccn3)cc2NC1=O (centres undefined)
 : x	-0.6
#101 CCCC(C)C(=O)Nc1ccc(Cl)cn1 (centres undefined)
 : 0.145	0.85
#102 CCSc1ncccc1C(=O)Oc1cc(C)nn1-c1ccccc1
 : -1.43	-0.6
#103 Cc1cc(C)c(C(=O)Cn2c(=S)[nH]c3ccccc32)c(C)c1
 : 0.22	-0.45
#104 Cc1[nH]n(-c2ccccc2)c(=O)c1C(c1cc([N+](=O)[O-])ccc1O)c1c(C)[nH]n(-c2ccccc2)c1=O
 : -1.24	x
#105 COC(=O)CCC(=O)Nc1ccc(-c2nc3ccccc3[nH]2)cc1
 : x	-0.05
#106 Cn1ccnc1SCC(=O)N1c2ccccc2-c2c(ssc2=S)C1(C)C
 : x	-0.1
#107 CCc1c(C(=O)Nc2ncn(Cc3cccc(C)c3)n2)csc1C
 : -0.61	1.55
#108 FC(F)(F)c1ccc2nsnc2c1
 : -0.27	x
#109 O=S(=O)(c1ccc(-c2ccccn2)s1)N1CCCCC1
 : 0.315	1.3
#110 O=C(NCCC(=O)N(c1ccccc1)c1nc2ccccc2s1)c1ccco1
 : x	1.3
#111 CC(=O)N(C(C)=O)c1c(N2CCCC2)c2ccccc2oc1=O
 : -0.935	0.05
#112 NC(=O)COc1ccc2c(-c3ccccc3)cc(=O)oc2c1
 : 1.36	-1.05
#113 O=C(NCc1cccs1)c1cc(-c2ccco2)on1
 : 0.18	1.5
#114 Cc1ccc(Oc2ncccc2NC(=O)c2ccc3c(c2)OCCCO3)c2c1CCC2
 : 0.29	-0.8
#115 COC(=O)c1ccc(COc2ccc(C3NC(C(=O)O)CS3)cc2OC)o1 (centres undefined)
 : 0.015	2
#116 Oc1ccc(-c2nnc(-c3ccc(O)cc3)nn2)cc1
 : -1.77	0.65

Compound profiles, as listed above. Values in the order: Ba CapD inh	AID504770
Listed for `NC(=O)COc1ccc2c(-c3ccccc3)cc(=O)oc2c1` → 1.36	-1.05
Listed for `CC(=O)N(C(C)=O)c1c(N2CCCC2)c2ccccc2oc1=O` → -0.935	0.05
Listed for `O=C(NCc1cccs1)c1cc(-c2ccco2)on1` → 0.18	1.5

Sorted by molar mass (rising): three of the compounds above.
Fields: Ba CapD inh	AID504770
#113 O=C(NCc1cccs1)c1cc(-c2ccco2)on1
 : 0.18	1.5
#112 NC(=O)COc1ccc2c(-c3ccccc3)cc(=O)oc2c1
 : 1.36	-1.05
#114 Cc1ccc(Oc2ncccc2NC(=O)c2ccc3c(c2)OCCCO3)c2c1CCC2
 : 0.29	-0.8

From PubChem
